Rango release inh – qHTS Assay for Inhibitors of RanGTP induced Rango (Ran-regulated importin-beta cargo) - Importin beta complex dissociation; Snurportin-1 (Homo sapiens) + GTP-binding nuclear protein Ran (Homo sapiens) + Importin …; Biochemical FRET Rango-importin beta, RanGTP-induced dissociation; Potency, µM (highest dose often 46.1 µM), without a hit: top-dose activity change, negative = inhibition; 0.071% of 340,000 active; active means falling FRET ratio curve, often poorly fitted, with flat reads before Ran was added; inconclusive means other falling curves, or compound fluorescence or quenching; inactive means flat or rising ratio curve;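 further: potency means the concentration at half of the fitted maximal effect; % of control where 0% means no effect; nearly all actives have a fitted effect of over 45% in size; -100% = wells without RanGTP and RCC1; the record marks most hits as doubtful in a second field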
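Rango FRET biosensor (snurportin-1 IBB flanked by N-terminal EYFP and C-terminal CFP10) at 0.1 uM, with 0.25 uM importin beta in PBS, 1mM DTT, 0.02% Tween-20, 0.1% BSA. 0.6 uM Ran, 2mM GTP and 0.2 uM RCC1 were then added for 45 min at room temperature. Inhibition read as loss of FRET rise.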
miR-21 FLuc – qHTS Assay for Modulators of miRNAs and/orActivators of miR-21; AID 2288, 2010; HeLa miR-21 FLuc reporter, luciferase, 48 h; Potency, µM (top dose mostly 38.3 µM), inactives show at the top dose reporter change, positive = more light; 340,000 tested, under 10 active; active = well fitted rising curve with a large enough effect; inconclusive = small, poorly fitted or top-dose-only effect; inactive = no such curve, though single readings can be large or run the other way;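 further: % of control where 0% means no effect; miR-21 action dims this reporter so a rising signal means less miR-21 action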
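HeLa cells stably expressing CMV-driven firefly luciferase with a downstream miR-21 binding sequence, endogenously expressing miR-21, were treated with titrations (up to about 40uM final) for 48 hours at 37 degree Celsius. Luciferase luminescence was read after lysis.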
Rango complex inh – qHTS Assay for Inhibitors of Rango (Ran-regulated importin-beta cargo) - Importin beta complex formation; Potency, µM (titrated, usually from 92.2 µM), inactives show at the highest dose inhibition of complex formation; 0.031% of 340,000 active; Rango CFP/YFP FRET sensor + importin beta, 45 min; AID 540263, 2011; active = rising FRET ratio curve, often small or poorly fitted; inconclusive = mostly compound fluorescence or quenching in the first reads; inactive = flat curves in all reads;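 further: potency means the concentration at half of the fitted maximal effect; 0% = DMSO wells and 100% = buffer wells lacking importin beta; nearly all actives have a fitted effect of over 15% in size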
Target sequence (Q14974 whole entry, looked up): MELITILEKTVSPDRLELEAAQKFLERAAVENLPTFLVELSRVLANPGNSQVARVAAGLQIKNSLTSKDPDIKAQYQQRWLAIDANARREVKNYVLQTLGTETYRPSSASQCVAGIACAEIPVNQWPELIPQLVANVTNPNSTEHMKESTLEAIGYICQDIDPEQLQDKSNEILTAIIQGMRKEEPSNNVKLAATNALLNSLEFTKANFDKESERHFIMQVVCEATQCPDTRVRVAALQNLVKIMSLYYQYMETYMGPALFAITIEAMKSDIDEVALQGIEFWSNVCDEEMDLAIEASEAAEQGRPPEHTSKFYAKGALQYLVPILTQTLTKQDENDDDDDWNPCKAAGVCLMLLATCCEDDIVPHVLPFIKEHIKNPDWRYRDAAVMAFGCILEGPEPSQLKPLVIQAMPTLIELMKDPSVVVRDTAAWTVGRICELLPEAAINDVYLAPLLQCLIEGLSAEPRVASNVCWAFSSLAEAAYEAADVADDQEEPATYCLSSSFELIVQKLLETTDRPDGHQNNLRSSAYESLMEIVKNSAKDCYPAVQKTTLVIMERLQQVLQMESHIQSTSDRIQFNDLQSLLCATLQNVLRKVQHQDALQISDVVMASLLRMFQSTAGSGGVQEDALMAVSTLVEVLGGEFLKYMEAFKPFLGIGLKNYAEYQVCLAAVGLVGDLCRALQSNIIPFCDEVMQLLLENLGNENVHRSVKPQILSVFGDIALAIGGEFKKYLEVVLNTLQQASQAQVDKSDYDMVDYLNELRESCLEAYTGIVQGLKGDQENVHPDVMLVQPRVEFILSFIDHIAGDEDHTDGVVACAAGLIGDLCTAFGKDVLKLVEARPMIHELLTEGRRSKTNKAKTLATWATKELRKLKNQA
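FRET biosensor Rango (snurportin 1 IBB between N-terminal EYFP and C-terminal Cerulean), 50 nM in PBS/1 mM DTT/0.02% Tween-20/0.1% BSA, preincubated 5 min RT with compound; 0.125 microM importin beta added, 45 min RT, CFP/YFP FRET ratio read.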
GLA inh pH 4.5 – qHTS Assay for Inhibitors of Human alpha-Galactosidase at pH 4.5. AID 1467, 2008. 230,000 tested, under 10 active. Alpha-galactosidase A (Homo sapiens), P06280. purified enzyme, 4-MU-alpha-Gal fluorescence, pH 4.5. activity change, negative = inhibition, % at 105 µM; inconclusive = small, poorly fitted or top-dose-only inhibition, or a rising curve; inactive = flat fitted curve, though single readings scatter; no compound was filed as active;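 further: 0% = full activity with enzyme and -100% = basal without enzyme; dose as in the result columns while the protocol names 77 µM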
Starred values were filed as active, the others as inactive; ? = inconclusive; nt = no result given; & = joins results of further samples. Not all compounds are listed; the hit share may differ from the screen's.

SMILES	Rango release inh	miR-21 FLuc	Rango complex inh	GLA inh pH 4.5
CCOc1cc(CO)cc(Br)c1OCC(=O)O	?	nt	0.9%	nt
CCCc1cc(C(=O)N2CCC(n3nccc3NC(=O)c3ccc(OC)cc3)CC2)no1	-13%	-5%	-0.4%	nt
COc1ccccc1NC(=O)Cn1nnc(C(=O)NCc2ccc3c(c2)OCO3)c1N	5%	0%&-23%	2.7%	nt
CC(OC(=O)c1cccc(N(C)C)c1)C(=O)N1CCc2ccccc2C1 (centres undefined)	2%	nt	-1.8%	nt
O=C(c1ccco1)N1CCN(C(=O)C2CCN(S(=O)(=O)c3cccc4nsnc34)CC2)CC1	-3%	nt	1.7%	nt
COc1ccc(CNC(=O)COC(=O)c2cccnc2Nc2cccc(C(F)(F)F)c2)cc1	-9%	-1%	3.5%	8
CC1CCN(c2ccc(C(=O)NCc3ccco3)cc2[N+](=O)[O-])CC1	1%	-39%	0.1%	-7
O=C(Nc1cnc2ccccc2c1)c1ccncc1	14%	-18%	-0.7%	-7
COC(=O)c1sccc1NC(=O)c1c(C)cc(=O)oc1C	0%	-5%	0.1%	-2
CCOc1ccc(-n2c(SCC(=O)Nc3cc(C)on3)nc3c(c2=O)SCC3)cc1	2%	-5%	0.1%	nt
CCCCOc1ccc(Cn2c(=O)oc3ccccc32)cc1	1%	1%&-8%	1.0%	nt
CCOCCCNC(=O)c1ccc(CS(=O)(=O)Cc2ccccc2F)o1	1%	2%	-3.9%	6
CCc1ccccc1NC(=O)c1cc(-c2ccc(F)cc2)on1	5%	-10%	-2.8%	5
Cc1ccc(NC(=S)NC(=O)C2CCCC2)c(Br)c1	5%	nt	0.2%	nt
COc1ccccc1N1CCN(C(=O)c2c(C)noc2C)CC1	2%	-1%	1.4%	-10
CN(C)/C=C1/C(=O)N(c2ccc([N+](=O)[O-])cc2)N=C1c1ccccc1	nt	-58%	nt	-8
O=C(COC(=O)c1ccccc1O)NC(=O)c1ccc(OC(F)F)cc1	-12%	nt	0.3%	nt
COc1ccc(CCNC(=O)CSc2nnc(-c3ccccc3)o2)cc1OC	16%	0%	0.0%	-2
COc1ccc(NC(=O)CN2C(=O)/C(=C3\SC(=S)N(CCC(=O)O)C3=O)c3ccccc32)cc1	4%	3%	1.9%	nt
O=[N+]([O-])c1cc([N+](=O)[O-])c2c(=Nc3ccccc3)n(-c3ccccc3)n(O)c2c1	-9%	16%	-3.7%	?
COc1cccc(-c2nc(CS(=O)(=O)CC(=O)N3CCOCC3)c(C)o2)c1	5%	2%	0.3%	nt
Cc1cc2c(=O)[nH]c(Cc3ccccc3)nc2s1	-2%	-13%	0.3%	4
COc1ccc(CCNc2ccc(C)cc2)cc1	-7%	-8%	-0.3%	2
O=[N+]([O-])c1ccc(-n2nnnc2CN2CCOCC2)cc1	0%	-3%	-0.1%	14
CCSc1ccc2nnc(-c3cccs3)n2n1	0%	-11%	5.3%	1
Cc1cccc(NC(=O)[C@@H]2CCCN2C(=O)OC(C)(C)C)c1	-3%	-1%	-2.7%	nt
COc1ccc(C(C)=O)c(Oc2ccc(S(=O)(=O)N3CCOCC3)cn2)c1	-13%	nt	-2.5%	nt
COc1ccc(NC(=O)CN(C)C(=O)C(CCSC)NC(=O)c2ccccc2)cc1 (centres undefined)	16%	3%	0.2%	nt
Cc1nc2oc3ccccc3c(=O)c2cc1C(=O)O	0%	-15%	2.9%	nt
COc1ccc(-c2nc(C#N)c(NC(C)C)o2)cc1	-3%	-63%	-2.4%	3
CCOc1cc(/C=N\NC(=O)Cn2nnc3ccccc32)ccc1O	-3%	1%	2.2%	-5
COC(=O)c1oc2ccc(Cl)cc2c1NC(C)=O	12%	-4%	0.4%	2
O=C(Nc1ccc(F)c(Cl)c1)Nc1csc2ccccc12	-7%	26%	?	0
COc1ccc(-c2nnc(SCC(=O)c3cccs3)o2)c(OC)c1	14%	-68%	5.0%	8
CCOc1ccccc1NC(=O)Cn1nnc(C(=O)Nc2ccccc2Cl)c1N	5%	-8%	5.1%	3
Cc1ccc2c(c1C)NC(=O)CC(c1ccccc1O)=N2	21%	-27%	8.3%	1
COc1ccc(CN2CN(C3CCCC3)CSC2=S)cc1	-7%	21%	4.0%	1
COc1ccc(N2CCN(CC(=O)Nc3cc(C)cc(C)c3)CC2)cc1	2%	-6%	-0.4%	nt
CCOc1ccc(/C(CCC(=O)O)=N/NC(=O)c2cccc(S(=O)(=O)Nc3ccccc3OC)c2)cc1	0%	nt	0.9%	nt
CCCCCCn1c(SCC(=O)Nc2cc(C)on2)nc2ccccc2c1=O	-5%	-4%	-5.1%	-2
CCOc1cc(NS(=O)(=O)c2ccc(OC)cc2)c(OCC)cc1NC(=O)c1ccco1	-15%	-7%	-1.6%	3
COc1cc([N+](=O)[O-])ccc1NC(=O)C[n+]1cccc(C(C)=O)c1	6%	3%	-0.6%	-7
Cc1cccc(NC(=O)CSc2nc3c([nH]c4ccccc43)c(=O)n2C)c1	-8%	1%&3%	0.4%	5
O=C(Nc1ccc(N2CCOCC2)c([N+](=O)[O-])c1)c1ccco1	12%	-54%	2.0%	8
CCOc1cccc(-c2nnc3n2N=C(c2cc(OC)ccc2OC)CS3)c1	1%	24%	?	8
COc1cccc(-n2cc(-c3ccc(F)cc3)[nH]c2=S)c1	4%	-58%	-2.2%	nt
CCOC(=O)C1CCCN(c2c(NCCN3CCCCC3C)c(=O)c2=O)C1 (centres undefined)	0%	-5%	4.7%	6
C=CCc1cccc([C@@H]2[C@@H](C)CC[C@H]3C(=O)N4[C@@H](c5cc(OC)c(OC)c(OC)c5)c5[nH]c6ccccc6c5C[C@H]4C(=O)N23)c1	nt	1%	nt	-10
CCC1CCCCN1CCCNC(=O)Cn1ncc2c([nH]c3ccc(C)cc32)c1=O (centres undefined)	7%	0%	0.5%	nt
Cc1cccc(NC(=O)c2cc(-c3cc(C)ccc3O)n[nH]2)c1	2%	-73%	-0.9%	nt

Reprinted at random: 6 entries already listed, in no set order.
SMILES	Rango release inh	miR-21 FLuc	Rango complex inh	GLA inh pH 4.5
Cc1cccc(NC(=O)CSc2nc3c([nH]c4ccccc43)c(=O)n2C)c1	-8%	1%&3%	0.4%	5
CCOc1cccc(-c2nnc3n2N=C(c2cc(OC)ccc2OC)CS3)c1	1%	24%	?	8
COc1ccc(CCNc2ccc(C)cc2)cc1	-7%	-8%	-0.3%	2
CCCCOc1ccc(Cn2c(=O)oc3ccccc32)cc1	1%	1%&-8%	1.0%	nt
Cc1cccc(NC(=O)[C@@H]2CCCN2C(=O)OC(C)(C)C)c1	-3%	-1%	-2.7%	nt
CCOc1cc(/C=N\NC(=O)Cn2nnc3ccccc32)ccc1O	-3%	1%	2.2%	-5

(list continues)
SMILES	Rango release inh	miR-21 FLuc	Rango complex inh	GLA inh pH 4.5
O=C(c1nc(-c2ccccc2)n(-c2ccccc2)n1)N1CCN(S(=O)(=O)c2ccccc2)CC1	-10%	1%	0.2%	-6
O=C(O)C1CCC(NSc2ccccc2[N+](=O)[O-])CC1 (centres undefined)	0%	-1%	0.1%	0
COC(=O)C1=C(C)N(Cc2ccco2)C(=O)N[C@@H]1c1cccc(C(F)(F)F)c1	nt	-1%	nt	-3&-7
CCc1ccc(-c2cc(C(=O)NCCCn3ccnc3)c3ccccc3n2)s1	nt	-7%	nt	?
CCCCOc1ccc(C(=O)N/C(=C/C=C/c2ccccc2)C(=O)NC)cc1	5%	-21%	?	-11
O=C(Nc1cccc(S(=O)(=O)N2CCCCC2)c1)c1cc2ccccc2o1	13%	nt	?	nt
Cc1cc(Br)ccc1SCC(=O)NCC(c1ccco1)N1CCCCC1 (centres undefined)	1%	nt	-3.8%	nt
CCn1c(=O)n(CC)c2cc(N3CCCC3)c(NC(=O)c3ccccc3)cc21	-17%	8%	3.5%	nt
CC(C)(C)OC(=O)NCCCCCNC(=O)c1[nH]cnc1C(=O)Nc1ccccc1	-9%	nt	-3.3%	nt
CCOc1ccc(NC(=O)CCC(=O)N/N=C/c2ccc([N+](=O)[O-])s2)cc1	-16%	-1%	-2.0%	0
Cc1cccc(C)c1NC(=O)C(c1ccc(Cl)cc1Cl)N1CCCCC1 (centres undefined)	-6%	-3%	-1.3%	0
CN(C(=O)C1CCN(S(=O)(=O)c2ccccc2[N+](=O)[O-])CC1)C1CCCCC1	-3%	nt	-1.3%	nt
Cc1ccc(-c2nc3ncccn3c2Nc2ccccc2C)o1	?	-14%	?	-6
Cc1ccc2occ(C(c3nnnn3Cc3ccccc3)N3CCOCC3)c(=O)c2c1 (centres undefined)	-5%	-7%	-2.0%	5
Cc1ccc(Cn2ccc(C3CC3)n2)cc1	4%	-44%	2.6%	-11
CN(C)/C=C/C(=O)c1cc(N2CCOCC2)ccc1[N+](=O)[O-]	-7%	-2%	0.5%	-9
COc1ccc(C(=S)N2CCCCCC2)cc1	1%	-14%	-1.1%	5
C#CCOCCOCCOCCNc1nc(N2CCN(C(=O)[C@H](CO)n3cc([C@@H](N)C(C)C)nn3)CC2)nc(N2CCN(C(=O)[C@H](CCCCN)n3cc([C@@H](N)[C@H](C)CC)nn3)CC2)n1	-1%	nt	-3.0%	nt
COc1ccc(N=CC2=C(O)c3ccccc3C2=O)c(OC)c1	2%	-16%	-3.7%	-5
CCCCn1c(N)c(N(CCOC)C(=O)CSc2ccccc2C)c(=O)[nH]c1=O	-19%	nt	-0.1%	nt
CCOc1ccc(C(=O)OCC(=O)NC2CCCC2)cc1OCC	2%	-5%	-1.0%	nt
CCCCOc1nc2ccccc2nc1C(C#N)S(=O)(=O)c1ccccc1 (centres undefined)	-24%	1%	?	-12
COC(=O)Cc1[nH]nc2c1C(c1cc(OC)c(OC)c(OC)c1)C(C#N)=C(N)O2 (centres undefined)	-15%	-1%	0.0%	6
CCCCCCCCCCCCN1[C@@H](CC(C)=O)c2cc(F)ccc2S1(=O)=O	?	nt	0.4%	nt
O=C(CSc1nnc2ccc(-c3ccccn3)nn12)NCC1CCCO1 (centres undefined)	34%	-2%	-0.4%	-4
COc1ccccc1NC(=O)CCN1C(=O)C2CC=CCC2C1=O (centres undefined)	29%	2%	-1.0%	nt
N#Cc1c2c(c(NCc3ccco3)n3c1nc1ccccc13)CCC2	?	-3%	?	11
Cc1ccc(OCC(=O)Nc2ccc(N3CCN(C(=O)c4ccco4)CC3)cc2)cc1C	-14%	5%	-0.6%	-13
Cc1csc(=O)n1CC(=O)OC(C)C(=O)Nc1ccc(F)c(F)c1F (centres undefined)	-8%	nt	-1.4%	nt
CCOc1cc(-c2sc(Nc3cc(C)ccc3OC)n[n+]2-c2ccccc2)ccc1OC	-9%	nt	0.2%	nt
CCCCn1c(-c2cccnc2)nc2cc3[nH]c(=O)c(C(C)C)nc3cc21	-30%	0%	?	nt
COc1ccc(CC(=O)OC2CCCN(C)C2)cc1 (centres undefined)	1%	-2%	0.8%	8
CCCCCCNC(=O)c1cn(CC)c2cc(N3CCN(C)CC3)c(F)cc2c1=O	1%	16%	0.2%	nt
COc1ccc(C(=O)/C=C2\Sc3ccccc3N2C)cc1	?	-35%	?	5
Cc1[nH]c2ccccc2c1C(c1ccccn1)N1CCC(C(N)=O)CC1 (centres undefined)	2%	0%	0.4%	4
C=CCc1c(C)nc(C)nc1N/N=C/c1ccc(F)cc1	11%	-5%	-2.6%	-3
COc1ccc(OC)c(NS(=O)(=O)c2cc3c4c(c2)CCN4C(=O)CC3)c1	-18%	nt	0.8%	nt
Nc1c(Cl)c(Cl)nc(C(=O)OCC(=O)N2CCCC2=O)c1Cl	11%	nt	-0.7%	nt
